Screening data (PubChem)
NPYLR7 ag = mosquito NPYLR7 agonism. activation, % at 10 µM. hit rate 0.15% among 270,000. AID 1259423. HEK293T NPYLR7/Galpha15, GCaMP6s calcium fluorescence; in the data active means activation above about 40%;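 further: 0% = vehicle and 100% = reference agonist at the receptor; some compounds past the cut are filed as inactive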
NPYLR7 ag max-min = further read-out of NPYLR7 ag, marked with its call; activation, %; measured here: Max-Min RFU normalised activation; some inactives read as strong as hits;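 span of the calcium signal over five minutes; 0% = vehicle and 100% = native peptide agonist; compound fluorescence can raise it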
The depositor's hits bear a star; & = joins results of further samples. An excerpt, so the mix of outcomes need not match the whole.

Values run as follows: NPYLR7 ag max-min	NPYLR7 ag
CC(=O)Cn1c(=O)c2c(nc3oc(-c4ccccc4)cn32)n(C)c1=O
 : -8	-7
CCc1nc2c(OCCOc3ccc(F)cc3)cccn2c1N(C)C(=O)C1CC1
 : -3	-2
COC(CNC(=O)N1CCOCC1)C(C)C (configuration not stated)
 : 5	15
Cc1cc(C(=O)N2CCN(C(c3ccccc3)c3ccc(F)cc3)CC2)no1 (configuration not stated)
 : 7	-1
C=CCOC(=O)C1=C(C)NC(=O)NC1c1ccc(Cl)c(Cl)c1 (configuration not stated)
 : -9	-4
CC1(C)CC(=O)C=C(NC2CCCCC2)C1
 : -13	-13
COC(=O)CC(C)NC(=O)c1ccc2c(c1)nc(C)n2C (configuration not stated)
 : 0	0
CCn1ncc(C(=O)NCc2ccc3c(c2)CC(C)O3)c1C (configuration not stated)
 : 1	17
O=C(CSc1nnc(-c2ccc(F)c(F)c2)c(=O)[nH]1)N1CCN(c2ccc(F)cc2)CC1
 : -3	-2
Cc1nn(C)cc1-c1ccnc(NCCCn2ccnc2C(C)C)n1
 : 15	-1
C=CCNC(=O)C(C1CCCC1)N1CCN(C(=O)c2ccc(F)cc2)CC1 (configuration not stated)
 : -2	-9
Cc1cccc(S(=O)(=O)NC(=O)C2(C)CCN2C(=O)Cc2ccsc2)c1 (configuration not stated)
 : -1	0
Cc1ccc(CN2CCSCC2)cc1NC(=O)Cn1cccn1
 : -4	-4
O=C(CSc1nnc(CNC(=O)c2cc(Br)ccc2Cl)n1-c1cccc(Cl)c1)Nc1nccs1
 : 3	-5
CCN(CC)CCCC(C)Nc1nc(C)nc2cc(Cl)ccc12 (configuration not stated)
 : -14	-12
C[C@H](CCC(=O)NCC(=O)O)[C@H]1CC[C@H]2[C@@H]3[C@H](O)C[C@@H]4C[C@H](O)CC[C@]4(C)[C@H]3C[C@H](O)[C@]12C
 : -10	-3
CN(N=Cc1ccc([N+](=O)[O-])o1)c1ccccc1
 : 6	6
O=C1CCC(C(=O)NC(c2ccc(Cl)cc2)c2cccs2)=NN1 (configuration not stated)
 : 8	1
COc1ccc(CCn2c(C)c(C)n3c4c(=O)n(CCCO)c(=O)n(C)c4nc23)cc1OC
 : 2	3
Cc1c(C(=O)N2CCC(Cc3ccccc3)CC2)cnc2c(-c3cccs3)cnn12
 : 41	28

Overlap with the part before: five compounds; new compounds follow.
Values run as follows: NPYLR7 ag max-min	NPYLR7 ag
C[C@H](CCC(=O)NCC(=O)O)[C@H]1CC[C@H]2[C@@H]3[C@H](O)C[C@@H]4C[C@H](O)CC[C@]4(C)[C@H]3C[C@H](O)[C@]12C
 : -10	-3
CN(N=Cc1ccc([N+](=O)[O-])o1)c1ccccc1
 : 6	6
O=C1CCC(C(=O)NC(c2ccc(Cl)cc2)c2cccs2)=NN1 (configuration not stated)
 : 8	1
COc1ccc(CCn2c(C)c(C)n3c4c(=O)n(CCCO)c(=O)n(C)c4nc23)cc1OC
 : 2	3
Cc1c(C(=O)N2CCC(Cc3ccccc3)CC2)cnc2c(-c3cccs3)cnn12
 : 41	28
Cc1cn2c3c(=O)n(Cc4ccccc4F)c(=O)n(C)c3nc2n1C(C)c1ccccc1 (configuration not stated)
 : 1	0
CC1CN(C(=O)CCNc2snc(Cl)c2C#N)CC(C)O1 (configuration not stated)
 : -23&28	-17&29
CCc1cc(NCc2cncn2CC)nc(N2CCOCC2)n1
 : 7	10
c1coc(-c2nc(CN(CC3CCCO3)CC3CCCO3)cs2)c1 (configuration not stated)
 : 14	0
Cc1ccsc1C(=O)N1CCCC(CNC(=O)c2ccc(-c3ccccc3)cc2)C1 (configuration not stated)
 : 0&-12	9&-3
CC(C)(CCl)C(=O)N1CCC[C@@H]1C(=O)NCCNC(=O)c1ccccc1
 : 9	2
CCOC(=O)N1CCN(C(c2ccc(OC)cc2)C2Sc3ncnn3C2=O)CC1 (configuration not stated)
 : 0	0
CCc1nn2c(=O)cc(CSc3nnnn3C3CCCC3)nc2s1
 : 0	0
CCOC(=O)C1=C(C)OC(=N)C(C#N)C1c1cccc(Br)c1 (configuration not stated)
 : -9	20
C#CCOCC(O)CN(Cc1cccn1C)CC1CCCO1 (configuration not stated)
 : 30	21
Cc1nc2ncccn2c1C(=O)NCc1cccnc1N(C)C
 : 3	4
CC(C)n1cc(CN(C)CC2CCCN(CCc3ccc(Cl)cc3)C2)cn1 (configuration not stated)
 : 1	14
Cc1csc(C(C)NC(=O)CCC2(Cc3ccc4ccccc4c3)CCC(=O)N2)n1 (configuration not stated)
 : 7	8
CCN1CCN(C(=O)CCC2CCN(C(=O)C3CCN(C(=O)N(C)C)CC3)CC2)CC1
 : 10	9
Cc1ccc(NC(=O)CC(=O)N(CC#Cc2ccccc2)C2CC2)cc1
 : 8	13
O=C(NCc1ccc(-c2nc3ccccc3s2)o1)C1CCS(=O)(=O)C1 (configuration not stated)
 : 13	12
Fc1cccc(CN2CCC(=NNc3nc4ccccc4s3)CC2)c1
 : 9	11
CCOC(=O)c1ccc2c(c1)nc(SCC1N=C(c3ccc(OC)cc3)OC1C)n2Cc1ccccn1 (configuration not stated)
 : 8	8
Cc1c(C(=O)NC2CCCC2)sc(=O)n1Cc1cccc(F)c1
 : -1	-10
CSc1ccc(NC(=O)N2CCCC(N3CCN(c4ccccc4)CC3)C2)cc1 (configuration not stated)
 : 4	13

As a short view, three of the compounds above:
Values run as follows: NPYLR7 ag max-min	NPYLR7 ag
CCOC(=O)c1ccc2c(c1)nc(SCC1N=C(c3ccc(OC)cc3)OC1C)n2Cc1ccccn1 (configuration not stated)
 : 8	8
Cc1c(C(=O)NC2CCCC2)sc(=O)n1Cc1cccc(F)c1
 : -1	-10
CSc1ccc(NC(=O)N2CCCC(N3CCN(c4ccccc4)CC3)C2)cc1 (configuration not stated)
 : 4	13

Later entries.
Values run as follows: NPYLR7 ag max-min	NPYLR7 ag
CN1CCN(N=C2C=C(c3ccccc3)C(O)(c3ccccc3)C2)CC1 (configuration not stated)
 : 81	-1
COc1cc2c(cc1OC)CN(S(=O)(=O)c1ccc(OC)c(N3CCN(S(=O)(=O)c4ccc(Cl)c([N+](=O)[O-])c4)CC3)c1)CC2
 : 9	13
Cn1nc(CC2CCN(C(=O)c3cccc(=O)[nH]3)CC2)n(-c2ccccc2)c1=O
 : 5	6
Cc1ccc2c(c1)C(OC1CCN(C)CC1)c1ccccc1CS2 (configuration not stated)
 : 0	1
O=S(=O)(CCNCc1ccccc1Cl)c1ccccc1
 : 2	5
CCOCCSc1nnc(-c2cn(C)nc2OC)n1C
 : 10	8
COc1ccccc1C1=NN(C(=O)CN2CCN(C(C)=O)CC2)C(c2cccc(F)c2)C1 (configuration not stated)
 : 1	-7
CCCCn1c(C)c(C)n2c3c(=O)n(CCC(=O)OCC)c(=O)n(C)c3nc12
 : 21	1
CCOC(=O)C1CCCCN1C(=O)CCc1nnc(CCc2ccc(OC)cc2)o1 (configuration not stated)
 : -2	-1
Cn1c(C(=O)N2CCCn3cncc3C2)cc2c(Cl)cccc21
 : -8	-6
O=C(c1ccc2c3c(cccc13)CC2)C1CCCN(Cc2cccn2-c2ncccn2)C1 (configuration not stated)
 : 1	13
Cc1cc(C(=O)NC2CC(=O)N(Cc3ccccc3Cl)C2)c(C)o1 (configuration not stated)
 : 1	7
O=C(CNC(=O)C12CC3CC(CC(Cl)(C3)C1)C2)N1CCCCC1
 : 7	4
C=CCn1c(SCC(=O)N2CCN(C(=O)OCC)CC2)nc2c([nH]c3ccccc32)c1=O
 : -1	0
O=C1NC2(CCN(Cc3cccs3)CC2)Nc2cc(Cl)ccc21
 : 10	-1
COc1ccc(C)nc1NC(=O)c1ccc(Br)o1
 : 6	21
O=C(Nc1cnn(C23CC4CC(CC(C4)C2)C3)c1)C1CC(c2c(F)cccc2Cl)=NO1 (configuration not stated)
 : 12	13
CCCc1nc(C(=O)NCc2cccnc2-n2cncn2)cs1
 : 6	15
O=C(CC1CCCCC1)NCCn1nc(-c2ccc(F)cc2)ccc1=O
 : -6	-6
CCOC(=O)CCC(=O)N1CCN(c2ncnc3c2nnn3-c2ccccc2)CC1
 : -11	-2
O=c1[nH]cnc2cc(Br)ccc12
 : 5	1
C=CC(=O)Nc1ccc(-c2cccc(-c3ccc4c(c3)OCCO4)n2)cc1
 : 5	-1
O=C(Nc1ccc(-c2ccco2)cc1)C1CCCN(C(=O)c2noc3c2CCCC3)C1 (configuration not stated)
 : 2	2
CCn1cc(C(=O)N2CCc3ccccc32)c2nn(-c3ccccc3)c(=O)c-2c1
 : -1	0
O=[N+]([O-])c1ccc(N2CCCC(C(F)(F)F)C2)c([N+](=O)[O-])c1 (configuration not stated)
 : 9	11
COc1ccc(C2=NC(=Cc3ccc(Cl)cc3)C(=O)O2)cc1OC
 : 6	0
O=C(c1cnc2ccccn2c1=O)N1CCCC(N2CCNC2=O)C1 (configuration not stated)
 : 3	0
COCCN1C(=O)CC2(C1=O)C(=O)N(CCCOc1ccc(OC)cc1)c1ccc(F)cc12 (configuration not stated)
 : -8	-3
CC1=NN(Cc2ccccc2F)c2nc3c(c(=O)n(Cc4ccccc4)c(=O)n3C)n2C1
 : -14	-10
CON(C)C(=O)c1cccc(NS(=O)(=O)c2ccc(C)c(F)c2)c1
 : -3	-3
COc1ccc(NC(=O)NCCn2nc(-c3ccc(OC)cc3)ccc2=O)cc1
 : -1	-1
CC1CCCCN1C(=O)c1cc(Br)cc(S(=O)(=O)N2CCOCC2)c1F (configuration not stated)
 : 7	10
COc1ccc(-c2c(C)c3ccc4c(c3oc2=O)CN(C2CC2)CO4)cc1OC
 : 6	-3
CCn1c(=O)c2c(nc3n2CCCN3c2ccc(C)cc2)n(C)c1=O
 : 3	2
CC1CCCN(c2ncnc(Oc3ccc4c(c3)OCO4)c2N)C1 (configuration not stated)
 : -5	-1
COCc1cc(C)nc(N/N=C\c2ccc(Oc3ccc([N+](=O)[O-])cc3[N+](=O)[O-])c(OC)c2)c1C#N
 : 7	-1
CCCc1cc(C(=O)Nc2cc(F)c(F)c(C(=O)OC)c2)n[nH]1
 : -1	2
CC1CN(CC2(O)CCC2)CC(C)O1 (configuration not stated)
 : 2	12
CS(=O)(=O)c1ccc(CN2CCN(c3ncc(F)cn3)CC2)cc1
 : -1	2
C=CCc1cccc(CNc2ccc(Cl)cc2)c1O
 : -18	-13
COC1(OC)N=C(N)C2(C#N)C(c3cccc(OCc4ccccc4)c3)C12C#N (configuration not stated)
 : -4	-1
O=c1c2ccccc2nc(-c2cccc3ccccc23)n1Cc1ccc(F)cc1
 : -2	-2
CC(NC(=O)C1CCN(S(=O)(=O)c2ccc3c(c2)OCCCO3)CC1)c1ccccc1Cl (configuration not stated)
 : -10	-7
CCc1ccc(CNC(C)CCc2ccco2)cc1 (configuration not stated)
 : 4	5
CCOc1ccc(C(=O)NNC(=O)c2nccnc2N)cc1
 : 10	7
O=C1CSC(c2ccc(Cl)cc2)N1C1CCCCC1 (configuration not stated)
 : -12	-10
O=C(CCc1csc(NC(=O)c2ccc(=O)[nH]c2)n1)Nc1nc2ccccc2s1
 : -15	-9
COc1ccccc1N1CCN(C2CCCN(C(=O)c3cc4ccccc4s3)C2)CC1 (configuration not stated)
 : -4	-1
O=C(NC1CCCC[C@H]1N(Cc1ccc(Cl)cc1)C(=O)c1ccccc1)C1CCCN(C(=O)c2ccccc2Cl)C1 (some centres not stated)
 : 17	22
Cc1ccc(C)c(NC(=O)C2(C)CCN(C(C)C)C2)c1 (configuration not stated)
 : -1	2
NC(=O)CSc1nc2c(cnn2CCO)c(=O)[nH]1
 : 5	4
O=C(COCc1ccccc1)N1CCN(CCCOC(c2ccc(Cl)cc2)c2ccc(Cl)cc2)CC1
 : 0	5
CCc1nc2ccc(C(=O)NCCc3c[nH]c4ccccc34)cn2c1N(CCC(C)C)CCN(C)C
 : -4	10
CSc1cccc(CN(C)CC2CCN(Cc3ccc(C)o3)CC2)c1
 : -1	4
CSc1ccc(Cl)c(C(=O)O/N=C2\c3ccccc3-c3ncccc32)c1
 : -21	-9
CCCC(C)NC(=O)c1sc2nc(CC)nc(C)c2c1C (configuration not stated)
 : -2	-1
NC(=O)c1cccnc1N1CCC2(CCCN(Cc3cccc(F)c3F)C2)C1 (configuration not stated)
 : -1	2
CC1=C(C)CC(C(=O)Nc2cccc(F)c2)C(C(=O)O)C1 (configuration not stated)
 : 2	5
CC(=O)N1CCN(CC(=O)c2c(-c3ccccc3)[nH]c3ccccc23)CC1
 : 4	5
COc1cc(S(=O)(=O)n2cnc3cc(C)c(C)cc32)ccc1Cl
 : 1	1

Additional records
Values run as follows: NPYLR7 ag max-min	NPYLR7 ag
O=C(Nc1ccc(O)c(-c2nc3ccccc3o2)c1)c1ccc(Cl)c(Cl)c1
 : -15	-9
Nc1cc(S(=O)(=O)Nc2ccc(SC(F)F)cc2)ccc1Cl
 : 48	5
CCC(Sc1ccc2nnc(-c3ccccn3)n2n1)C(=O)O (configuration not stated)
 : 3	4
COC(=O)c1ccccc1-[n+]1c(C)cc(C)cc1C
 : 14	-2
CCOC(=O)Cn1cc([N+](=O)[O-])cn1
 : 9	7
O=[N+]([O-])c1ccc(S(=O)(=O)C=Cc2ccc(F)cc2)cc1
 : 10	-7
COc1ccc(-n2nc(C(=O)NCCc3ccccn3)c(=O)n(Cc3ccccc3F)c2=O)cc1
 : 12	5

Three records drawn at random from those above:
Values run as follows: NPYLR7 ag max-min	NPYLR7 ag
O=[N+]([O-])c1ccc(S(=O)(=O)C=Cc2ccc(F)cc2)cc1
 : 10	-7
O=C(Nc1ccc(O)c(-c2nc3ccccc3o2)c1)c1ccc(Cl)c(Cl)c1
 : -15	-9
CCOC(=O)Cn1cc([N+](=O)[O-])cn1
 : 9	7
